From PubChem
Cruzain inh noDet: qHTS Assay for Promiscuous and Specific Inhibitors of Cruzain (without detergent) | Cruzipain (Trypanosoma cruzi), P25779 | purified cruzain, Z-FR-AMC fluorescence, no detergent | Potency, µM, for the others: max response, negative = inhibition, usual class: inhibitors | actives 2.3% (n = 200,000);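 further: plate controls were enzyme without inhibitor for no effect and buffer without enzyme for full effect; nearly all actives have a fitted effect of over 40% in size; top concentration of the series not given in the record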
Target sequence (P25779 123-467 limits assumed): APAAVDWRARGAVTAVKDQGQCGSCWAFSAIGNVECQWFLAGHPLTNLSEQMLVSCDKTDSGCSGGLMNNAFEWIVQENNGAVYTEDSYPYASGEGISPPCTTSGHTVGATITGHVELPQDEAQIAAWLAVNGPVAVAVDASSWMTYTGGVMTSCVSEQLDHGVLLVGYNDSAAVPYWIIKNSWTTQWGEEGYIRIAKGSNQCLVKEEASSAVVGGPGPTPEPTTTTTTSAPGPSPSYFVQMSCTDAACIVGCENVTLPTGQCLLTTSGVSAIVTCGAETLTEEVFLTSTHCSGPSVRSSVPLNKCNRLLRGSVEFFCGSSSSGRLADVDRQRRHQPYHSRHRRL
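Detergent-free condition (0.00005% Triton X-100) in acetate buffer pH 5.5 with DTT. 1.5 nM enzyme and compound were pre-mixed 15 min, then 2 uM Z-FR-AMC substrate added; reaction progress from fluorescence change between first and third reads (60 s).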
SARS PLpro yeast: qHTS of Yeast-based Assay for SARS-CoV PLP; actives 0.19% (n = 330,000); Potency, µM (doses to about 32.9 µM), without a hit: at the top dose activity, positive = growth rescue; S. cerevisiae expressing SARS-CoV PLpro, growth rescue; control for the full effect not named in the record; active means well fitted rising curve with a large enough effect; inconclusive means small, poorly fitted or top-dose-only effect; inactive means no such curve, though single readings can be large or run the other way; further: 0% is about no effect; nearly all actives have a fitted effect of over 55% in size; growth read by luminescence after 48 h
RE007 growth inh: qHTS Assay for Inhibitors of the HIV-1 protein Vpr | S. pombe RE007 Vpr strain, BacTiter-Glo ATP luminescence, 24 h; control for the full effect not named in the record | actives 0.21% (n = 360,000) | AID 651644, 2012 | Potency, µM (doses to about 92.2 µM), inactives show at the top dose activity change, negative = less growth; active = well fitted falling curve with a large enough effect; inconclusive = small, poorly fitted or top-dose-only effect; inactive = no such curve, though single readings can be large or run the other way;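 further: on the % scale 0 is the no-effect control and ±100 the full control effect; nearly all actives have a fitted effect of over 50% in size; the assay follows cell death caused by Vpr and the record does not say whether a fall means rescue or toxicity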
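Fission yeast strain RE007, carrying one chromosomally integrated HIV-1 vpr copy, was seeded at OD 0.01 in PMG+AL medium with 23 nL pinned compound. After 24 h at 30 °C and 99% humidity, viability was read by BacTiter-Glo luminescence.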
NS1 function inh: qHTS Assay for Inhibitors of Influenza NS1 Protein Function; actives 0.4% (n = 270,000); S. cerevisiae slowed by influenza A NS1, growth recovery by OD600; AID 2326, 2010; Potency, µM (highest dose often 46.1 µM), for inactives: at the highest dose activity, positive = more growth; active means well fitted rising curve with a large enough effect; inconclusive means small, poorly fitted or top-dose-only effect; inactive means no such curve, though single readings can be large or run the other way; further: nearly all actives have a fitted effect of over 50% in size
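Read-out: OD600 growth recovery of NS1-expressing budding yeast. Cells grown overnight at 30C in -URA glucose medium, washed, resuspended and diluted 1:100 in 2% galactose assay medium, pH 6.0. Same strain lacking NS1 served as positive control.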
LASV entry inh: qHTS for Inhibitors of binding or entry into cells for Lassa Virus. actives 1.2% (n = 300,000). Lassa virus pseudotype entry inhibition, cell reporter; control for the full effect not named in the record. AID 540256, 2011. Potency, µM (doses to about 37.9 µM), without a hit: at the highest dose activity change, negative = inhibition, usual class: inhibitors; active means well fitted inhibition curve with a large enough effect; inconclusive means small, poorly fitted or top-dose-only effect, or effect the other way; inactive means flat fitted curve, though single readings scatter; tested in HEK293 cells; further: on the % scale 0 is the no-effect control and ±100 the full control effect; nearly all actives have a fitted effect of over 50% in size; luciferase read-out
Cruzain Triton: qHTS Assay for Promiscuous and Specific Inhibitors of Cruzain (with detergent); purified cruzain, Z-FR-AMC fluorescence, 0.01% Triton; Potency, µM, for the others: max response, negative = inhibition, most hits filed as inhibitors; actives 0.43% (n = 200,000); AID 1478, 2009;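 further: plate controls were neutral wells for no effect and buffer without enzyme for full effect; nearly all actives have a fitted effect of over 40% in size; top concentration of the series not given in the record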
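Compounds were screened in titration against cruzain (1.5 nM) with 0.01% Triton X-100 to counter colloidal aggregation. Activity was the AMC fluorescence increase over 60 s after adding 2 uM Z-FR-AMC at pH 5.5.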
2A StopGo: High Throughput Screening for Foot and Mouth Disease Virus Antivirals; human cells with a luciferase reporter of 2A StopGo recoding; control for the full effect not named in the record; actives 1.2% (n = 410,000); Potency, µM (titrated, usually from 57.9 µM), for inactives: top-dose signal change, negative = less light; active = well fitted falling curve with a large enough effect; inconclusive = small, poorly fitted or top-dose-only effect; inactive = no such curve, though single readings can be large or run the other way; tested in HEK293T cells; further: on the % scale 0 is the no-effect control and ±100 the full control effect; nearly all actives have a fitted effect of over 45% in size; luciferase light after 4 h
MARV entry inh: qHTS for inhibitors of binding or entry into cells for Marburg Virus; actives 1.8% (n = 300,000); Potency, µM (doses to about 37.8 µM), inactives show top-dose activity change, negative = inhibition, most hits filed as inhibitors; Marburg virus pseudotyped entry inhibition, cell reporter; control for the full effect not named in the record; about a third of the inactives were read at about 46 µM; active = well fitted inhibition curve with a large enough effect; inconclusive = small, poorly fitted or top-dose-only effect, or effect the other way; inactive = flat fitted curve, though single readings scatter; tested in HEK293 cells; about a fifth of its hits are not listed in these tables; further: on the % scale 0 is the no-effect control and ±100 the full control effect; luciferase read-out
Active calls of the source: *; ? = inconclusive; . = no result given; & = joins results of further samples; [ ] = another dose, or the depositor's remark. Unless noted, the call rests on the fitted dose curve; in most records, active means well fitted curve in the direction sought with a large enough effect; inconclusive means small, poorly fitted or top-dose-only effect, or another doubt; inactive means no such curve, though single readings can be large; an effect the other way counts as inactive or inconclusive. Potency means the concentration at half of the fitted maximal effect.

entry | molecule | RE007 growth inh | Cruzain inh noDet | MARV entry inh | NS1 function inh | SARS PLpro yeast | Cruzain Triton | 2A StopGo | LASV entry inh
1 | CCOC(=O)c1cc2sccc2n1CC(=O)OC | -8% | -3% | -9% | -131% | -9% | -2.9% | -9% | 6%
2 | Cc1ccsc1CN(C)C(=O)C1CCC(=O)N(CCc2cccc(F)c2)C1 (stereo not drawn) | 8% | . | . | -5% | -6% | . | 16% | .
3 | Cc1ccc(Nc2nc(N)nc(CSc3nc(C)cc(C)n3)n2)cc1 | -3% | 3% | ? | 1% | . | -0.4% | -9% | 0%
4 | CC(=O)c1cccc(NC(=O)N2CCC(NC(=O)C3CCCCC3)CC2)c1 | -5% | . | -21%[46.1 µM] | 22% | -1% | . | -9% | 2%
5 | c1ccc(-n2cnnc2SCc2nc3ccccc3s2)cc1 | -4% | 10µM* | ? | -9% | -1% | -5.0% | 57%[activator] | ?
6 | CCOC(=O)c1cc(-c2ccccc2)n(CC(=O)NCc2ccccc2OC)c1C | . | -2% | . | . | . | 1.0% | -10% | 7.1µM*
7 | COc1ccc(N=C2C(=O)Nc3c(C)cccc32)cc1 | -7% | -1% | -20% | -12% | -5% | 1.6% | 5% | -12%
8 | COc1ccc(C2(O)C(=O)Nc3ccc(C)cc32)cc1 (stereo not drawn) | 1% | . | ? | 2% | 1% | . | -14% | 4%
9 | Cc1ccc(NS(=O)(=O)c2ccc(C(=O)NCCCN3CCCC3=O)cc2)cc1 | 6% | . | ? | . | 4% | . | -9% | -9%
10 | CCOc1ccccc1Nc1nc(-c2cccnc2)cs1 | -3% | . | -5% | -80% | -6% | . | -15% | 9%
11 | COc1ccc(C(=O)CN2C(=O)c3ccccc3C2=O)c(OC)c1 | 3% | . | . | -8% | -4% | . | 46%[activator] | .
12 | CC(C)(C)NC(=O)COC(=O)c1snc(C(=O)NC2CCCCC2)c1N | 25% | -1% | -13% | -3% | -3% | -4.3% | ? | ?
13 | O=C(NCc1ccccc1Cl)c1cc2c(s1)CS(=O)(=O)C2 | -1% | . | . | 12% | -4% | . | -8% | .
14 | Cn1ncc2c(Nc3ccc([N+](=O)[O-])cc3)nc(Cl)nc21 | 1% | . | . | -1% | 1% | . | -13% | .
15 | O=C(Cc1ccccc1)Oc1ccc(N2C(=O)CCC2=O)cc1 | 13% | 0% | 0% | -1% | -4% | -3.9% | -13% | ?
16 | CCN(CC)c1ccc(/C=C/c2cc(-c3ccccc3)c3ccccc3n2)cc1 | -12% | . | . | 14% | -1% | . | -35% | .
17 | O=c1c2ccccc2c(C=NCCc2ccccc2)c(O)n1Cc1ccccc1 | -3% | -20% | 24% | 15% | -4% | -9.4% | 0% | -18%
18 | Brc1cc(Br)c2nc(-c3ccc(N4CCOCC4)cc3)ccc2c1 | 12% | -7% | 24% | 12% | 8% | 7.4% | 35%[activator] | ?
19 | CC(=NNC(=O)c1cc(C)nc2ccccc12)c1ccc(N2CCOCC2)cc1 | -1% | . | -11% | . | 0% | . | -15% | -29%
20 | Cc1c(O)ccc(/C=N/Nc2nc(-c3cccnc3)nc3ccccc23)c1O | 6%&10% | . | . | 3% | -1% | . | 42%[activator] | .

2 entries drawn at random from the list so far:
entry | molecule | RE007 growth inh | Cruzain inh noDet | MARV entry inh | NS1 function inh | SARS PLpro yeast | Cruzain Triton | 2A StopGo | LASV entry inh
18 | Brc1cc(Br)c2nc(-c3ccc(N4CCOCC4)cc3)ccc2c1 | 12% | -7% | 24% | 12% | 8% | 7.4% | 35%[activator] | ?
19 | CC(=NNC(=O)c1cc(C)nc2ccccc12)c1ccc(N2CCOCC2)cc1 | -1% | . | -11% | . | 0% | . | -15% | -29%

Continuation.
entry | molecule | RE007 growth inh | Cruzain inh noDet | MARV entry inh | NS1 function inh | SARS PLpro yeast | Cruzain Triton | 2A StopGo | LASV entry inh
21 | CC(=O)c1cnc2c(-c3ccccc3)cnn2c1C | -19% | -2% | ? | -14% | 6% | 4.8% | 37%[activator] | 11%
22 | Cc1ccccc1CN1[C@@H](CC2CCCCC2)COCCS1(=O)=O | -30% | . | . | -48% | -21% | . | ? | .
23 | CCN1CCN(CCC(=O)Nc2ccc(Br)c(C)c2)CC1 | 5% | . | . | -13% | 0% | . | 19% | .
24 | CC/C(=N\NC(=O)COc1ccc(Br)cc1)c1ccc(OC)c(OC)c1 | 12% | . | ? | . | 0% | . | ? | 4%
25 | CC(=O)Nc1ccccc1C(=O)C(=O)Nc1cccc(C(=O)NCc2ccc(C)cc2)c1 | . | 10% | -2% | -1% | 2% | -2.8% | . | -17%
26 | Cc1ccc(Cl)cc1N1CCN(C(=O)C2CCN(S(=O)(=O)Cc3ccccc3)CC2)CC1 | . | ? | -9%[46.1 µM] | . | . | -16% | ? | 0%[46.1 µM]
27 | Cn1c(=O)c2sccc2n2c(CCCC(=O)Nc3ccc(Oc4ccc(Cl)cc4)cc3)nnc12 | . | 3% | . | . | . | -0.3% | ? | -13%[46.1 µM]
28 | O=C(NCC(c1ccco1)N1CCN(c2ccccc2)CC1)OCc1ccccc1 (stereo not drawn) | -6% | 11% | ? | -20% | -1% | 4.2% | -15% | ?
29 | Cc1ccc(-c2cc(C(F)(F)F)c(C#N)c(=O)[nH]2)cc1 | -8% | -20% | 1% | -7% | 9% | -1.2% | -30% | 16%
30 | Cc1sc2nc(CSC(C)C(=O)Nc3cc(S(C)(=O)=O)ccc3Cl)[nH]c(=O)c2c1C (stereo not drawn) | -1% | . | 4%[46.1 µM] | . | 2% | . | -6% | 16%
31 | CCN1CCN(C(c2ccccc2OC)c2nnnn2C2CCCCC2)CC1 (stereo not drawn) | 10% | -3% | ? | 2% | 5% | 3.7% | 0% | -9%
32 | O=C(CCn1c(=O)[nH]c2ccsc2c1=O)N1CCc2ccccc2C1 | 6% | -7% | 3% | 4% | 2% | -1.1% | 21% | ?
33 | N=C(N)SCc1cccc2ccccc12 | -1% | 6% | ? | 6% | 3% | 2.8% | ? | ?
34 | COCCCNC(=S)Nc1cccc2ncccc12 | -8% | . | ? | . | 3% | . | -29% | ?
35 | O=C1NC(c2ccccc2)=C(c2nc3ccccc3s2)C(c2ccc(O)cc2)N1 (stereo not drawn) | -1% | 4% | -9% | 24% | 6% | -12% | 0% | -31%[14.3 µM]
36 | Cc1nn(-c2ccccn2)c2c1C(c1ccncc1)C1=C(CC(C)(C)CC1=O)N2 (stereo not drawn) | -5% | -9% | 1% | -3% | -1% | -2.9% | -20% | 2%
37 | O=c1[nH]c2ccc(S(=O)(=O)N3CCCCC3)cc2[nH]1 | -5% | 2% | 11% | -6% | 7% | 2.8% | -10% | 0%
38 | Cn1cnnc1SCC(=O)c1ccc(OC(F)F)cc1 | 5% | -7% | 21% | -3% | -14% | -5.1% | 4% | 1%
39 | O=S(=O)(c1ccc2c(c1)OCCO2)N1CCC(c2nc3ccccc3s2)CC1 | 3% | -3% | -4% | 9% | 8% | -0.7% | ? | ?
40 | N#Cc1ccc(N2CCN(c3ccc(F)cc3)CC2)cc1 | -20% | 2% | ? | -4% | 3% | -0.8% | -11% | ?
41 | CN(C)c1ccc(NC(=O)c2ccc(COc3cccc(Cl)c3)o2)cc1 | ? | -19% | -16% | -39% | -11% | -5.6% | 58%[activator] | -2%
42 | Cc1ccc2[nH]c3c(N4CCN(Cc5ccccc5)CC4)ncnc3c2c1 | -24% | 6% | ? | -17% | -3% | 2.2% | 11µM* | ?
43 | CC(C)OC(=O)c1c(-c2ccc(C(C)C)cc2)csc1NC(=O)C1CCCO1 (stereo not drawn) | -22% | 6% | ? | 4% | 1% | -6.7% | ? | 5.6µM*
44 | CCOCCCN1CC(=O)N2[C@@H](Cc3c([nH]c4ccccc34)C2(C)C)C1=O | 2% | . | -19% | -2% | 2% | . | 0% | ?
45 | O=C(NC1CCCC1)C(c1ccc(N2CCOCC2)cc1)N(Cc1ccco1)C(=O)c1ccco1 (stereo not drawn) | -10% | 5% | -8%&-8% | -1% | -5% | 2.5% | -8% | -9%
46 | COc1cc(OC)c2cc(C(=O)N[C@@H](Cc3ccccc3)C(=O)O)n(C)c2c1 | -11% | . | 13%[46.1 µM] | 1% | 1% | . | -10% | 19%[46.1 µM]
47 | Cc1cccc(N2C(=O)NC(=O)/C(=C/c3ccc([N+](=O)[O-])o3)C2=O)c1 | . | -19% | 3% | 27% | ? | -7.0% | -19% | 7%
48 | Cc1ccc(S(=O)(=O)N(Cc2c(F)cccc2Cl)C(=O)N2CCN(C)CC2)cc1 | -3% | . | 13% | . | -4% | . | -5% | ?
49 | CCCCN(C(=O)c1cc2c(s1)CCC2)c1c(N)n(CCC)c(=O)[nH]c1=O | ? | . | ? | . | -3% | . | -21% | 0%
50 | CNC(=S)N(CCc1c(C)[nH]c2ccc(OC)cc12)Cc1cc(OC)c(OC)c(OC)c1 | -3% | ? | ? | 17% | 25% | -4.1% | -7% | ?
51 | CN(CC(=O)Nc1ccc(N2CCOCC2)cc1)C(=O)CSc1ccc(F)cc1 | 5% | . | -2% | . | -3% | . | -4% | 0%
52 | O=C(NCCc1csc(-c2cccc(F)c2)n1)c1ccc(Br)o1 | . | -1% | . | . | . | -14% | ? | 24%[46.1 µM]
53 | Cc1ccc(NC(=O)CCn2cccn2)c(C)c1 | . | 3% | . | . | . | 0.3% | 9% | 0%[46.1 µM]
54 | O=CN1CCN(C(=O)c2ccc(Br)o2)CC1 | 5% | . | 13%[46.1 µM] | 1% | -2% | . | 5% | 20%[46.1 µM]
55 | O=C(CSc1nccn(-c2cccc(F)c2)c1=O)Nc1ccc(Cl)cc1F | -1% | . | 5%[46.1 µM] | 2% | -24% | . | -3% | 8%
56 | CCN(CC)C(=O)CSc1nnc2c3ccccc3n(C)c2n1 | -2% | . | 6%[46.1 µM] | -14% | -8% | . | -15% | -5%[46.1 µM]
